Screening results (PubChem)
HPGD block: HPGD (human) dehydrogenase inhibition. Potency, µM, without a hit: top-dose activity change, negative = inhibition, hits mostly inhibitors. purified HPGD, NADH fluorescence kinetic, PGE2 substrate. hit rate 4.3% among 150,000. P15428; active = well fitted inhibition curve with a large enough effect (not every such curve was filed as active); inconclusive = small, poorly fitted or top-dose-only effect, or another doubt; inactive = no such curve, though single readings can be large or run the other way;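 further: top concentration of the series not given in the record; plate controls included wells without enzyme; inactives centre near -10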
Target sequence (P15428 whole entry, looked up): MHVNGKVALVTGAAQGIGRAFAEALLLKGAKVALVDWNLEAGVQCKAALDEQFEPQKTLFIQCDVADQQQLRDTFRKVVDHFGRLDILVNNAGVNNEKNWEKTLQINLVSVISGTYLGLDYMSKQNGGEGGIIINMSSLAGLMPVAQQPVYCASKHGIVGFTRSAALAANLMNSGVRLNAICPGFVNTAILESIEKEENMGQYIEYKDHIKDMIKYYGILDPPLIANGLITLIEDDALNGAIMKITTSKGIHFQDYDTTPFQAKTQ
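NADH formation kinetics: reaction with 30 uM PGE2 and 1 mM NAD+ (final), 20 nM enzyme, Tris-HCl pH 8 with Tween 20, after 15 min compound preincubation at room temperature. Fluorescence change, last versus first of five reads.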
The depositor's hits bear a star; ? = inconclusive; ! = repeats disagree. On the % scale 0 is the no-effect control and ±100 the full control effect; potency means the concentration at half of the fitted maximal effect. Only part of the results is shown. The share of hits here may be higher or lower than overall.

SMILES	HPGD block
CCCNS(=O)(=O)c1ccc(N2CCCC2=O)c([N+](=O)[O-])c1	-8%
CC(C)(C)c1nc(CN2CCCCC2)cc(CN2CCCCC2)c1O	-9%
O=C(CCC(=O)N/N=C/c1ccccc1O)NCc1ccccc1	-27%
CC1CCN(C(c2ccc(N(C)C)cc2)c2nnnn2Cc2ccc(F)cc2)CC1 (stereo not drawn)	-25%
COc1cccc(/C=N/Nc2nc3ccccc3n3cnnc23)c1	-12%
CCN(CC)C(=O)c1ccc(S(=O)(=O)NCc2cccnc2)cc1	?
COC(=O)c1ccc(C(=O)OC)c(NC2=NS(=O)(=O)c3ccccc32)c1	-21%
CC(C)OCCCNC(=O)Cn1ncc2c(=O)oc3ccccc3c21	-11%
Clc1ccc(CSc2cc3c(nn2)-c2ccccc2CC3)cc1	-16%
O=S(=O)(c1cccc2nsnc12)N1CCc2ccccc21	-28%
COC(=O)[C@@]1(Cc2ccccc2)[C@H]2c3cc(C(=O)N4CCCC4)n(Cc4ccc(OC)c(OC)c4)c3C[C@H]2CN1C(=O)c1ccccc1	-4%
Cc1ccccc1CNC(=O)Cc1ccccc1[N+](=O)[O-]	-6%
CCOc1ccc(NC(=O)N[C@@H](CCSC)C(=O)OC)cc1	0%
CCCN1C2CCCC1CC(NC(=O)c1ccccc1F)C2 (stereo not drawn)	-5%
O=C(CSc1ncc(-c2ccccc2)[nH]1)Nc1ccccc1	-5%
O=S(=O)(Nc1nc2ccccc2nc1N1CCN(c2ccccn2)CC1)c1ccc(Cl)cc1	-8%
COc1ccc(NC(=O)CSc2nnc(C(C)C)n2N)cc1	-15%
CCOC(=O)c1c(NC(=O)CN2CCOCC2)sc(C(=O)NC)c1C	-7%
O=C(CN1C(=O)c2cccc3cccc(c23)C1=O)N1CCCCC1	?
COC(=O)c1ccc2c(=O)n(NC(C)=O)c(=S)[nH]c2c1	-11%
O=[N+]([O-])c1c(NCCO)cc(N2CCN(Cc3ccc4c(c3)OCO4)CC2)c2nonc12	-29%
Cc1cc(C)nc(SCc2nc(N)nc(-c3ccccc3O)n2)n1	-2%
Cn1cccc1/C=N/NC(=O)c1cccnc1	-9%
N#Cc1c(N2CCN(C(=O)c3ccccc3Cl)CC2)nc(-c2ccccc2)c2c1CCCC2	?
OC(c1ccc(OCc2ccccc2)cc1)c1nnc(-c2ccccc2)o1 (stereo not drawn)	20µM*
O=C(O)CSc1c(-c2ccccc2)c2cc(Cl)ccc2[nH]c1=O	-2%
CCCCn1c(N)c(NCC(C)C)c(=O)[nH]c1=O	-16%
CC(=O)c1cccc(NC(=S)NC(=O)c2ccc(Br)cc2)c1	-11%
O=C(Nc1cccc([N+](=O)[O-])c1)C12CC3CC(C1)CC(n1cnc([N+](=O)[O-])n1)(C3)C2	-11%
c1csc(C2C3=C(Nc4ncnn42)c2ccccc2OC3)c1 (stereo not drawn)	-26%
Cc1cc(C)nc(-n2nc(C)cc2NC(=O)c2cc(=O)c3ccccc3o2)n1	-4%
CC1(C)C2CC=C(/C=N/NC(=O)c3ccc(Cl)cc3)C1C2 (stereo not drawn)	-17%
CCN(CC)S(=O)(=O)c1ccc(NC2=NS(=O)(=O)c3ccccc32)cc1	-17%
C[n+]1ccccc1COc1ccc(C(C)(C)C)cc1	2%
O=S1(=O)CCC(SCc2nc3sccn3c2Br)C1 (stereo not drawn)	-7%
CC1CCN(CC(=O)Nc2ccccc2-c2ccccc2)CC1	-21%
CCOC(=O)c1oc2ccc(S(=O)(=O)N3CCC(C)CC3)cc2c1C	-14%
S=C(NCCN1CCOCC1)Nc1ccc(Cl)cc1Cl	-15%
CCOC(=O)NC(NC(=S)Nc1ccccc1OC)C(Cl)(Cl)Cl (stereo not drawn)	0%
CCOc1ccc(-n2c(O)c(/C=N/NC(=O)C3COc4ccccc4O3)c3ccccc3c2=O)cc1 (stereo not drawn)	-17%
COc1ccc(NC(=O)CSc2nnc(Cc3cccn3C)n2-c2ccc(OC)cc2)cc1	-3%
C=CCNC(=O)c1onc(CSc2ccc(Cl)cc2)c1C(=O)O	-26%
CC(C)Cn1cc(C(=O)NC2CCN(Cc3ccccc3)CC2)c2c3ccccc3n(C)c2c1=O	-20%
CC1CCN(S(=O)(=O)c2ccc(Cl)cc2)CC1	-25%
COc1cccc(-c2nnc3n2N=C(c2cc(OC)ccc2OC)CS3)c1	28µM*
CC(=O)OCC(=O)[C@@]1(O)CCC2C3CCC4=CC(=O)CC[C@@]4(C)[C@]3(F)C(O)C[C@]21C (stereo partly drawn)	-4%
OCCn1c(SCCOc2ccccc2F)nc2ccccc21	2%
CCc1ccccc1-n1c(SCC(=O)Nc2ccc3c(c2)OCCO3)nc2[nH]ncc2c1=O	-4%
COCCNC(=O)C1CCN(S(=O)(=O)N2CCC3(CC2)OCCO3)CC1	-18%
CCCC(=O)N(c1ccc(OCC)cc1)C1C=CS(=O)(=O)C1 (stereo not drawn)	9%
Carrying on.
SMILES	HPGD block
CNS(=O)(=O)c1cc(C(=O)NCc2ccco2)ccc1Cl	0%
Cn1c(-[n+]2c(-c3ccccc3)cc(-c3ccccc3)cc2-c2ccccc2)nc2c([N+](=O)[O-])cccc21	-3%
CCOC(=O)c1cccnc1NC(=O)c1ccncc1	-3%
COc1ccc(CNC(=O)CCSCc2ccccc2Cl)c(OC)c1	-24%
CCOCCn1c(CN2CCN(c3ccc(F)cc3)CC2)nc2c1c(=O)n(C)c(=O)n2C	-7%
CCCc1cc(=O)n2[nH]c(-c3ccc(C)cc3)cc2n1	?
O=C(c1ccccc1)N(Cc1ccc(F)cc1)C1CCS(=O)(=O)C1 (stereo not drawn)	2%
O=c1[nH]c(SCc2c(Cl)c(Cl)c(Cl)c(Cl)c2Cl)nc(=S)[nH]1	4µM*
CCN(CC(=O)NCc1ccc(F)cc1)Cc1nc2ccccc2c(=O)[nH]1	-11%
O=C1CNC(=O)/C1=C\c1ccc(O)cc1	-21%
CCOC(=O)C(=O)C1=C(N2CCOCC2)/C(=C\c2cccc([N+](=O)[O-])c2)CC1	32µM*
COc1ccc2occ(NC(C)=O)c2c1	-10%
CCOC(=O)C(NC(C)=O)(OCc1ccc(F)cc1)C(F)(F)F (stereo not drawn)	0%
Cc1c(C#N)c(SCC(N)=O)nc2c1CCCC2	-8%
CC(CC(=O)O)CC(=O)Nc1ccc(S(N)(=O)=O)cc1 (stereo not drawn)	-6%
CCN1CCN(C(=O)CSCc2nc(-c3ccc(OC)c(OC)c3)oc2C)CC1	?
CCN1CCN(c2nc(C)nc3c2sc(=S)n3C)CC1	10µM*
CCOc1ccc(N(CC(=O)NCc2ccc(F)cc2)S(=O)(=O)c2c(C)noc2C)cc1	-7%
CC(C)C1O/C(=N/C(=O)Nc2ccc(Cl)c(Cl)c2)NC1=O (stereo not drawn)	20µM*
O=C(COC(=O)C1CCCO1)Nc1cccc(C(F)(F)F)c1 (stereo not drawn)	-4%
CC(C)(C)NC(=O)CN(C(=O)C1(C)CC(=O)N=C2C=CC=CN21)C1CCCC1 (stereo not drawn)	?
O=C(CN1C(=O)C2C3C=CC(C3)C2C1=O)NCc1ccccc1 (stereo not drawn)	1%
COc1cc(CN(C(=S)NCC(=O)NC2CC2)C2CCCC2)cc(OC)c1OC	-11%
CC(=O)NCCc1ccc(S(=O)(=O)N(C)C2CCS(=O)(=O)C2)cc1 (stereo not drawn)	-11%
CN(Cc1n[nH]c(=S)n1C)S(=O)(=O)c1ccccc1	-7%
COc1ccccc1C(=O)NCCCNc1ccc([N+](=O)[O-])cc1	-21%
COc1ccccc1N(CC(=O)NCCSC(C)(C)C)S(C)(=O)=O	-4%
O=C(NCc1ccco1)/C(=C/C=C\c1ccccc1)NC(=O)c1ccc(Br)o1	-15%
COc1ccc(NC(=O)C2CC(=O)OC2(C)C)cc1 (stereo not drawn)	-1%
O=C(CN1C(=O)c2ccccc2C1=O)[C@@H](O)CN1C(=O)c2ccccc2C1=O	2%
CSc1cccc(NC(=O)CN(C)S(=O)(=O)c2ccccc2)c1	2%
CSC(=NNC(=O)c1ccccc1O)SC	-26%
COC(=O)N[C@@H](c1cccc(F)c1)[C@@H](C)[N+](=O)[O-]	-5%
COc1ccc(Cc2nnc(NC(=O)c3c(-c4ccccc4)noc3C)s2)cc1OC	-26%
COc1ccc(C(=O)n2cnnc2N)cc1	-1%
CC(C)(C)C(=O)COC(=O)CNC(=O)c1ccc(Oc2ccccc2)cc1	-5%
Cn1nc(C(=O)Nc2cccc(C(F)(F)F)c2)c2ccccc2c1=O	-13%
O=C(O)CSc1nnc(C2COc3ccccc3O2)n1-c1ccccc1 (stereo not drawn)	-24%
NC(=O)C(c1ccccc1)C1CCCCC1 (stereo not drawn)	-12%
Cc1ccc(C(=O)NCC(=O)NCC(=O)OCc2ccc(Cl)cc2)cc1	2%
COc1ccc(C2C(C#N)=C(N)OC3=C2C(=O)CCC3)cc1Cn1nc(C)c([N+](=O)[O-])c1C (stereo not drawn)	-5%
Cc1cc(NC(=O)Cc2c(F)cccc2Cl)no1	-11%
CC1S/C(=C(\C#N)C(=O)NCc2ccco2)N(c2ccc(F)cc2)C1=O (stereo not drawn)	-6%
Nc1nnc(SCC(=O)NC2CCCCC2)s1	-3%
COCCNC(=O)c1cccc(NS(=O)(=O)c2cccc3cccnc23)c1	4%
O=C(CN1CCN(c2ccccn2)CC1)Nc1ccc(Oc2ccccc2)cc1	6%
COc1ccccc1CNc1cc(C)ccc1C	-9%
COc1cc(/C(C)=N\NC(N)=S)cc(OC)c1OC	-4%
O=C(O)CCC(=O)N1N=C(c2cccs2)CC1c1cn(-c2ccccc2)nc1-c1ccccc1 (stereo not drawn)	?
COc1c(O)cc2oc3cc(O)c(CC=C(C)C)c(O)c3c(=O)c2c1CC=C(C)C	28µM*!
(next part)
SMILES	HPGD block
COc1cccc(/C(O)=C2/C(=O)C(=O)N(CCN3CCOCC3)C2c2cccs2)c1 (stereo not drawn)	-12%
CC1(C)N=C(c2ccc(Cl)cc2)C(=O)N1	-9%
Cc1nn(CC(=O)NCc2cccnc2)c(=O)c2ccccc12	-7%
CCCNC(=O)c1ccc(Cn2c(=S)[nH]c3c([nH]c4ccc(OC)cc43)c2=O)cc1	?
COC(=O)c1ccccc1NC(=O)c1cccs1	-12%
CC1=C(C(=O)N2CCOCC2)C(c2cccc3ccccc23)NC(=S)N1 (stereo not drawn)	-22%
CCCn1c(-c2ccc(F)cc2)nc2c(N(C)CCN(C)C)nc(C)nc21	?
CC(C)n1c(NCc2c[nH]c3ccccc23)nc2ccccc21	-11%
CN1CCc2[nH]nc(-c3n[nH]c4c3CN(C)CC4)c2C1	-1%
COc1cc(S(=O)(=O)N2CCN(c3ccccc3F)CC2)ccc1Cl	-11%

Given in CSV form: 18 of the compounds above.
molecule,HPGD block
CC1S/C(=C(\C#N)C(=O)NCc2ccco2)N(c2ccc(F)cc2)C1=O (stereo not drawn),-6%
Nc1nnc(SCC(=O)NC2CCCCC2)s1,-3%
COCCNC(=O)c1cccc(NS(=O)(=O)c2cccc3cccnc23)c1,4%
O=C(CN1CCN(c2ccccn2)CC1)Nc1ccc(Oc2ccccc2)cc1,6%
COc1ccccc1CNc1cc(C)ccc1C,-9%
COc1cc(/C(C)=N\NC(N)=S)cc(OC)c1OC,-4%
O=C(O)CCC(=O)N1N=C(c2cccs2)CC1c1cn(-c2ccccc2)nc1-c1ccccc1 (stereo not drawn),?
COc1c(O)cc2oc3cc(O)c(CC=C(C)C)c(O)c3c(=O)c2c1CC=C(C)C,28µM*!
COc1cccc(/C(O)=C2/C(=O)C(=O)N(CCN3CCOCC3)C2c2cccs2)c1 (stereo not drawn),-12%
CC1(C)N=C(c2ccc(Cl)cc2)C(=O)N1,-9%
Cc1nn(CC(=O)NCc2cccnc2)c(=O)c2ccccc12,-7%
CCCNC(=O)c1ccc(Cn2c(=S)[nH]c3c([nH]c4ccc(OC)cc43)c2=O)cc1,?
COC(=O)c1ccccc1NC(=O)c1cccs1,-12%
CC1=C(C(=O)N2CCOCC2)C(c2cccc3ccccc23)NC(=S)N1 (stereo not drawn),-22%
CCCn1c(-c2ccc(F)cc2)nc2c(N(C)CCN(C)C)nc(C)nc21,?
CC(C)n1c(NCc2c[nH]c3ccccc23)nc2ccccc21,-11%
CN1CCc2[nH]nc(-c3n[nH]c4c3CN(C)CC4)c2C1,-1%
COc1cc(S(=O)(=O)N2CCN(c3ccccc3F)CC2)ccc1Cl,-11%

More compounds
SMILES	HPGD block
CCSc1nc(N)nc(-c2cccs2)c1C#N	-19%
COc1ccccc1NC(=O)c1sc2ncn(Cc3ccccc3C)c(=O)c2c1C	?
COc1cc(-c2nc(S(=O)(=O)c3ccccc3)c(N3CCOCC3)o2)cc(OC)c1OC	-2%
CN(C)S(=O)(=O)c1ccc(C(=O)Nc2nnc(-c3ccc4c(c3)CCCC4)o2)cc1	-23%
COC(=O)Oc1ccc(/C=N/NC(=O)CSCc2ccc(Cl)cc2)cc1OC	-15%
O=C1N/C(=C\c2ccccc2)C(O)=C1C=NCc1ccccc1	-3%
c1cncc(-c2noc(-c3ccco3)n2)c1	-14%
COc1ccc(OC)c(CN(CCCN2CCOCC2)C(=O)Nc2ccccc2)c1	5%
CCCCOC(=O)C1=C(C)Nc2nnnn2C1c1ccccc1Cl (stereo not drawn)	-8%
C=CCn1c(=O)c(C(=O)Nc2ccccc2O)c(O)c2ccccc21	?
O=C(COc1ccccc1[N+](=O)[O-])OCC(=O)N1CCC(Cc2ccccc2)CC1	-11%
CC[n+]1c(/C=C/C=C/N(C(C)=O)c2ccccc2)sc2ccccc21	-26%
O=C(c1ccc(S(=O)(=O)N2CCOCC2)cc1)N1CCN(c2ccccc2)CC1	-5%
Cc1ccc(S(=O)(=O)N2CCCCC2)cc1C(=O)Nc1ccc(N2CCOCC2)cc1	-3%
CCn1c(C)c(/C=N/Nc2nc3ccccc3s2)c2ccccc21	?
CCOC(=O)Cn1nc(-c2ccc(C)cc2)ccc1=O	-11%
c1nc2sc3c(c2c2nnnn12)CCCC3	?
